hNpr1 antagonist = blocks ANP-stimulated signaling of human Npr1 receptor | P16066 | HEK293 hNpr1 GloSensor cGMP, ANP-stimulated luminescence | Potency, µM (series often up to 46.3 µM), inactives show top-dose activity change, negative = inhibition, actives largely listed as inhibitors | 1.6% of 76,000 active; active = well fitted inhibition curve with a large enough effect; inconclusive = small, poorly fitted or top-dose-only effect; inactive = no such curve, though single readings can be large or run the other way;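 note: nearly all actives have a fitted effect of over 60% in size; nearly all hits also lower the signal before the agonist is added; a reference antagonist and vehicle were the controls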
Target sequence (P16066 whole entry, looked up): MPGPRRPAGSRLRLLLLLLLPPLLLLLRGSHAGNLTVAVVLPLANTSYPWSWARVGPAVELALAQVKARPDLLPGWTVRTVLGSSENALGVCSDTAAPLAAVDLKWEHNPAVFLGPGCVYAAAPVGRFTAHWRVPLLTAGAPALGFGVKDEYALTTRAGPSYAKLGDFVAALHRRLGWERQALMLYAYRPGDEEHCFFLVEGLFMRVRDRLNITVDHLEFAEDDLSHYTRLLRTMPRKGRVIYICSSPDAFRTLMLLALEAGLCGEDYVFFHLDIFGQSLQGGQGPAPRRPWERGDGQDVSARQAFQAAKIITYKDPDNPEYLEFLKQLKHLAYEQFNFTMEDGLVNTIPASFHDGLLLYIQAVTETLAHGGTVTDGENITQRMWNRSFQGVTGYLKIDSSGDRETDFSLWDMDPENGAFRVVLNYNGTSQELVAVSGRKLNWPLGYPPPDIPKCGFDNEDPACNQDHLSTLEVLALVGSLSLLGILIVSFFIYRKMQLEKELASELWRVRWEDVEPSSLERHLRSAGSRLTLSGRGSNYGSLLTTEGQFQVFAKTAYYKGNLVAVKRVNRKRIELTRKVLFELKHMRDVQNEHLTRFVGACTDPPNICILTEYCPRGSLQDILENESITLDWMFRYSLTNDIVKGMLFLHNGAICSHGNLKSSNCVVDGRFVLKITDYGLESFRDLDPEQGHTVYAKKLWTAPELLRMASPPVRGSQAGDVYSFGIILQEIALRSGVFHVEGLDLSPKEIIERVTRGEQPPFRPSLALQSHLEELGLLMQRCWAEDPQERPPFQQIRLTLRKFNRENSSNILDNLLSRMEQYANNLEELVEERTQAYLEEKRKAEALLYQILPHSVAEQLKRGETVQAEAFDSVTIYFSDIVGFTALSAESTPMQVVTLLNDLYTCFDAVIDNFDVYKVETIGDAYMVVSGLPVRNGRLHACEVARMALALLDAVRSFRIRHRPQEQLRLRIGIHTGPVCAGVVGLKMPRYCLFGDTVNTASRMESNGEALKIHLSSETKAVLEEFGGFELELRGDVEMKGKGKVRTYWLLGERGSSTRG
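HEK293 cells stably expressing human Npr1 and cGMP GloSensor pGS-40F, loaded 2 h with 2% GloSensor reagent, given compound 30 min at room temperature. Luminescence read before and 20 min after 0.1 nM hNppA.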
Starred values were filed as active, the others as inactive; ? = inconclusive; & = joins results of further samples; [ ] = another dose, or the depositor's remark. % is set by controls: 0 for no effect and ±100 for the full control effect; potency is the fitted concentration of half-maximal effect. These rows are one share of the data; count on the stated rates, not on these rows.

SMILES	hNpr1 antagonist
CCn1c2c(c(=O)n1Cc1ccccc1)CCN(C(=O)C(C)C)C2	4%[70.6 µM]
O=C(NCCc1nc(-c2ccccc2)cs1)c1ccc2nccn2c1	-17%
O=C(O)c1cccc(CC2CCN(C(=O)CCC(F)(F)F)C2)c1 (configuration not stated)	-1%
CC(=O)Oc1c(-c2ccc(NC(=O)c3ccco3)cc2)c(-c2cccc(F)c2)nn1-c1ccc(C)cc1	-15%
CC(C)c1nc(C(=O)N2CCC(CCC(=O)Nc3ccc4c(c3)OCCO4)CC2)cs1	-6%
COc1ccccc1NC(=O)NCC1CCN(Cc2cccnc2)C1 (configuration not stated)	0%
COc1ccccc1OCCNC(=O)C1CCCCC(=O)N1C (configuration not stated)	1%
Cc1ccc(-c2ccc3nnc(CNC(=O)Cc4ccccc4Cl)n3n2)cc1C	-6%
O=C1CCN(C(=O)C2CCN(C(=O)c3nccc4ccccc34)CC2)CCCCCCN1	0%
CC(C)CN(CC1CN(C(=O)c2ccccc2)CCO1)C(=O)c1cccc2ccccc12 (configuration not stated)	-3%
CNC(=O)[C@@H](Cc1ccccc1)N1CCC[C@H]1C(=O)NC(C)(C)C	-1%[70.6 µM]
CC(C)(C)c1ccc(-c2cc(C[C@H]3CNCC[C@H]3CC(=O)NCc3cccs3)no2)cc1	-8%
Cc1ccccc1S(=O)(=O)N1CCC(c2noc(-c3cccnc3)n2)C1 (configuration not stated)	-6%
CN(Cc1cccc(O)c1)C(=O)[C@H]1C[C@@H](C(=O)O)N(C)[C@H]1c1ccccc1F	5%
COc1ccc(NC(=O)CC2CCCN(c3cnn(CC4CC4)c(=O)c3)C2)cc1 (configuration not stated)	0%
O=C(c1cc(F)ccc1F)N1CCC(c2n[nH]c(=O)n2-c2ccccc2)CC1	0%
CC(=O)N1CCC([C@@H]2CN(Cc3ccc(C#N)cc3)C[C@H]2CO)CC1	-2%
COCC1CN(C2CCC2)CC12CCN(C(=O)c1nccn1C)CC2 (configuration not stated)	-2%
Clc1cc(N2CCC(N3CCCCC3)CC2)n2nccc2n1	0%[70.6 µM]
CCNC(=O)N1c2ccccc2CC1c1nc(C2CC2)no1 (configuration not stated)	-1%
O[C@@H]1C[C@@H](c2nc(-c3ccc4c(c3)OCO4)no2)N(Cc2cccc(OC(F)(F)F)c2)C1	2%
CS(=O)(=O)N(C1CC1)C1CCOC2(CCN(C(=O)CCC3CCCC3)CC2)C1 (configuration not stated)	-26%
Cc1ncc2n1C(=O)N(C1CCN(Cc3cccc(C(F)(F)F)c3)CC1)C2	-7%&2%
CC(C)(C)CN1CCNc2cc(Nc3cccnc3)ncc2C1	-1%[70.6 µM]
CCN1C(=O)CCC2(C(=O)Nc3ccc(N4CCOCC4)cc3)CCCC=C12 (configuration not stated)	-3%
COc1ccc(S(=O)(=O)N2CCC(c3noc(C4CC4)n3)C2)cc1 (configuration not stated)	?
COc1cc(NC(=O)N2CCC(Oc3ncccc3C(=O)N(C)C)C2)cc(OC)c1OC (configuration not stated)	-7%
CCc1nccc(-c2c(-c3ccccc3)ncn2CC(O)c2ccccc2)n1 (configuration not stated)	-2%
CN1C(=O)CCCCC1C(=O)N1CCCC1 (configuration not stated)	-1%
CCc1n[nH]c(CC2CCN(C(=O)COc3ccc(F)cc3)CC2)n1	5%
COCC(=O)NC[C@H]1O[C@@H](CO)[C@@H](O)[C@H]1N1CCOCC1	2%[70.6 µM]
O=C(c1ccncc1)N1CC(Oc2ccccc2-c2nc(-c3cnccn3)no2)C1	0%
Cc1cnc(C(=O)NC2C[C@H]3CC[C@@H](C2)N3S(=O)(=O)c2ccc(C)c(F)c2)cn1 (some centres not stated)	-4%
CC(C)c1noc(CC2CCN(C(=O)c3cc4ccccc4[nH]3)CC2)n1	?
COCCNC(=O)C[C@@H]1C[C@H]2O[C@H](CNC(=O)NC(C)C)[C@@H](O)[C@H]2O1	2%[70.6 µM]
C#CCNC(=O)C[C@@H]1c2nc(NC(=O)c3ccc(C(C)(C)C)cc3)sc2C[C@@H]2[C@](C)(CO)[C@H](O)CC[C@]21C	-9%
CC(C(=O)NC1CCN(c2cnn(C)c(=O)c2)CC1)c1ccccc1 (configuration not stated)	6%
O=C1N(Cc2ccc(F)cc2)C[C@H]2CN(CC3CC3)CCN12	-4%[70.6 µM]
CCOc1ccc(-c2nc(C3CC(=O)N(Cc4ccccc4OC)C3)no2)cc1 (configuration not stated)	-13%
c1ccc(-n2cnnc2CC2CCN(Cc3ccc(-c4ccn[nH]4)o3)CC2)cc1	2%
Cc1cc(C[C@@H]2COC[C@@H]2NC(=O)Cc2c[nH]c(=O)n(C)c2=O)on1	6%
COc1ccc(Cl)cc1C(=O)N1CCC2(CC1)N(c1ccccc1)C(=O)CS2(=O)=O	0%
CN(Cc1ccncc1)Cc1ccccc1C(F)(F)F	0%[70.6 µM]
Cc1sc2ccn(C)c(=O)c2c1C(=O)NCc1ccc(OC(C)C)cc1	-13%
CC(C)NC(=O)N1CCC2(CCCCO2)CC1	2%
O=c1n(CC2CC2)nc2n1CCN(S(=O)(=O)c1cccnc1)CC2	-2%
O=C(c1ccc(C(F)(F)F)cc1)N1CCc2nc(-c3ccc(Cl)cc3)nc(-c3ccccc3)c2C1	7%
CC(C)CCN1CCn2c(nn(-c3ccc(F)cc3F)c2=O)C1	18%[70.6 µM]
O=c1cc(-c2cnccn2)oc2c(-c3cn[nH]c3)nccc12	-9%[70.6 µM]
Cc1ccc(C(=O)N2CCc3nc(-c4cn[nH]c4)[nH]c3C2)cc1N1CCNC1=O	6%
Further records:
SMILES	hNpr1 antagonist
COc1ccc(F)c(-c2nc(COc3ccc(-n4cnnc4)cc3)c(C)o2)c1	?
CCN(C1CCOCC1)C1CN(C(=O)c2cccs2)C1	-13%
CC(C)NC(=O)NC[C@H]1O[C@@H](CO)[C@@H](O)[C@H]1N(C)CCN(C)C	3%[70.6 µM]
COCC1CN(C(=O)c2ccc(OC)cc2OC)CC12CCOCC2 (configuration not stated)	-2%
CCc1ccc(N2CC(c3noc(-c4ccc(OC)cc4)n3)CC2=O)cc1 (configuration not stated)	0%
CN(C(=O)c1cccn1C)C1CCc2nn(C)c(=O)n2CC1 (configuration not stated)	0%
Cc1csc(NC(=O)[C@@H]2C[C@H](c3ccc(F)cc3)N(Cc3ccccc3Cl)C2)n1	?
CC1(c2ccccc2)N(Cc2ccccc2C#N)C(=O)OC12CCN(C(=O)c1ccc(F)cc1)CC2 (configuration not stated)	2%
CC(c1cccs1)N(C)C(=O)Cc1ccc(F)cc1 (configuration not stated)	0%[70.6 µM]
Cc1ccccc1C(=O)N1CCC(CCC(=O)N2CCN(c3ccccn3)CC2)CC1	1%
CCc1cccc(C)c1NC(=O)Cn1cccc1-c1nc(-c2ccc(OC)c(F)c2)no1	-16%
COc1ccc(-c2ccc3nc(-c4cccc(F)c4)oc3c2)c(OC)c1OC	-18%
Cc1cnc(C2CCOCC2)n1CCNC(=O)C1(c2ccccc2)CCCC1	1%
COCc1cc(CNc2nccc(-c3ccccn3)n2)[nH]n1	4%
Cc1nnc2n1CCC(NC(=O)CCCc1c[nH]c3ccccc13)CC2 (configuration not stated)	-2%
Cc1cccnc1CC(C)NC(=O)c1cc(Cn2cnc3ccccc32)[nH]n1 (configuration not stated)	?
COCc1nc(C2CCCN(C(=O)C3CCCC3)C2)no1 (configuration not stated)	0%
OCC1(Cc2ccccc2)CCCN(Cc2cn[nH]c2-c2ccc(F)cc2)C1 (configuration not stated)	1%
C[S+](=O)([O-])N1CCC2(CC1)C(=O)NN=C2C1CC1	0%[70.6 µM]
COc1cccc(-c2ccc3ncn(-c4ccc(F)cc4F)c(=O)c3n2)c1OC	5%[70.6 µM]

Six compounds from above, arranged by the value under hNpr1 antagonist, high to low:
structure,hNpr1 antagonist
COCc1cc(CNc2nccc(-c3ccccn3)n2)[nH]n1,4%
Cc1cnc(C2CCOCC2)n1CCNC(=O)C1(c2ccccc2)CCCC1,1%
COCc1nc(C2CCCN(C(=O)C3CCCC3)C2)no1 (configuration not stated),0%
Cc1nnc2n1CCC(NC(=O)CCCc1c[nH]c3ccccc13)CC2 (configuration not stated),-2%
CCc1cccc(C)c1NC(=O)Cn1cccc1-c1nc(-c2ccc(OC)c(F)c2)no1,-16%
COc1ccc(-c2ccc3nc(-c4cccc(F)c4)oc3c2)c(OC)c1OC,-18%

Next results
SMILES	hNpr1 antagonist
CC(C)NC(=O)c1nc(-c2cccc(F)c2)c2cnccn12	-6%[70.6 µM]
CN(C)Cc1nnc(C2CC(NC(=O)Cc3c(F)cccc3Cl)C2)n1C (configuration not stated)	17%&1%
COc1ccc(OC)c(NC(=O)Cn2c(-c3ccc(F)cc3)nc(C)cc2=O)c1	-15%
COc1cccc(-c2nnnn2[C@H]2CO[C@H]3[C@@H]2OC[C@@H]3NC(=O)Nc2ccc(Oc3ccccc3)cc2)c1	3%
COc1ccc(C(=O)N2CCCC(c3nn(-c4ccc(OC)cc4)c(=O)[nH]3)C2)cc1 (configuration not stated)	17%
O=C(Nc1ccc(Cl)cc1)c1nc2c(o1)CCN(Cc1ccc(F)cc1F)CC2	3.2µM*
O=C(C1CC1)N1CCN(Cc2ccccc2)CC(O)C1 (configuration not stated)	-1%
O[C@H]1CC[C@@H](Cc2cc(COc3ccccc3)on2)O[C@@H]1CNC1CCOCC1	-1%[70.6 µM]
O=C(NC1CC1)c1cc2cccnn2n1	5%[70.6 µM]
COCCNC(=O)[C@@H]1C[C@H](Oc2cccnc2)CN1C(=O)c1ccccn1	3%
COc1ccc2ccc(OCc3nc(C(=O)NCc4csc(N)n4)co3)cc2c1	?
O=C1NC2(CN(Cc3cncs3)C2)Oc2ccccc21	4%[70.6 µM]
CCn1ncc(CN2CCCCCCNC(=O)[C@@H]3CCC[C@@H]32)c1C	2%
Cn1c2c(c3cc(F)ccc31)CN(C(=O)Nc1ccccc1)CC2	6%
Cc1cc(CN(C)C2CCCc3ccccc32)no1 (configuration not stated)	6%[70.6 µM]
COc1ccc(OC)c(NC(=O)Cn2nc3c(cc2=O)CCCCC3)c1	4%
CC(NC1CCC2(CCNCC2)CC1)c1nc(-c2ccccn2)no1 (configuration not stated)	3%
Cc1noc2c(NC(C)C)cc(-c3cccnc3)nc12	-2%[70.6 µM]
O=C(NCc1ccc(N2CCOCC2)cc1)c1cc2c(s1)CN(C1CC1)C2	0%
Cc1ccc(-c2ccc3nnc(CNC(=O)CNC(=O)c4ccccc4)n3n2)cc1	1%

7 structures already listed, ordered by SMILES length, ascending:
SMILES	hNpr1 antagonist
Cc1cc(CN(C)C2CCCc3ccccc32)no1 (configuration not stated)	6%[70.6 µM]
Cc1noc2c(NC(C)C)cc(-c3cccnc3)nc12	-2%[70.6 µM]
CC(NC1CCC2(CCNCC2)CC1)c1nc(-c2ccccn2)no1 (configuration not stated)	3%
Cn1c2c(c3cc(F)ccc31)CN(C(=O)Nc1ccccc1)CC2	6%
CCn1ncc(CN2CCCCCCNC(=O)[C@@H]3CCC[C@@H]32)c1C	2%
O=C(NCc1ccc(N2CCOCC2)cc1)c1cc2c(s1)CN(C1CC1)C2	0%
Cc1ccc(-c2ccc3nnc(CNC(=O)CNC(=O)c4ccccc4)n3n2)cc1	1%

More results follow:
SMILES	hNpr1 antagonist
Cc1cn2nc(C(=O)NCc3ccccc3Cl)cc2c(N2CCSCC2)n1	0%
Clc1cc(NC2CCOC2)n2nccc2n1 (configuration not stated)	-2%[70.6 µM]
COCCNC(=O)[C@@H]1CCC[C@@H](NCc2cccnc2)CN(C)C(=O)C1	5%[70.6 µM]
CNC(=O)C1CCCN(S(=O)(=O)c2ccccc2)CCC(=O)NCC1 (configuration not stated)	5%
CC(C)CCc1noc(CN2CCCN(C(=O)c3ccco3)CC2)n1	4%
Cc1cc(C)c(CNC(=O)c2nc(-c3cccc(F)c3)cc3c2ccn3C)c(=O)[nH]1	1%[70.6 µM]
O=C(Cc1ccccc1Cl)N1CCC[C@H]1c1nc(-c2ccccc2)no1	-9%
COc1ccc(OC)c(S(=O)(=O)N2C[C@@H](Oc3ccccc3)C[C@H]2C(=O)NC2CC2)c1	0%
COCCN1CC(CO)C2(CCN(C(=O)CN3CCOCC3)CC2)C1 (configuration not stated)	6%
CCN1C(=O)C2(CCN(S(=O)(=O)c3ccc(C)c(Cl)c3)CC2)c2ccccc21	4%
CCc1cn(C[C@H](NC(=O)Cc2ccccc2)C(=O)O)c(=O)[nH]c1=O	4%[70.6 µM]
Cc1ccccc1-c1cnc2[nH]cc(CC(=O)NCCN(C)C)c2c1	-15%[70.6 µM]
CCS(=O)(=O)N1CCCC(Cc2ncc(C)n2Cc2ccc(F)cc2)C1 (configuration not stated)	4%
Cc1cnc(C(=O)NCC(=O)N2CCCCCCNC(=O)CC2c2ccccc2)cn1 (configuration not stated)	-2%
COc1cccc(C(=O)N2CCOC[C@H](Oc3ccccc3)C2)c1	-11%[70.6 µM]
COC(=O)[C@H](NC(=O)[C@@H]1C[C@@H](NC(=O)c2ccncc2)CCN1S(=O)(=O)c1ccc(OC)cc1)C(C)C	5%
COc1cccc(C(=O)N2CCCn3ccnc3C2C(C)C)c1OC (configuration not stated)	1%
COc1cccc(NC(=O)CCC2CCN(Cc3noc(C4CC4)n3)CC2)c1	-20%
CCc1cn(C[C@H](NC(=O)C2CCC2)C(=O)O)c(=O)[nH]c1=O	3%[70.6 µM]
NCCO[C@H]1C[C@@H](O)C12CCN(C(=O)Cn1cnnn1)CC2	0%
CC(C(=O)NCCc1nc2ccccc2n1C)C1CCOCC1 (configuration not stated)	5%
COc1ccc(C(O)Cn2ccn3nc(-c4ccc(C(C)C)cc4)cc3c2=O)cc1 (configuration not stated)	-2%
O=C(c1ccc2c(c1)OCO2)N1CCC2(CC1)NC(=O)N(Cc1ccc(F)cc1)C2=O	-19%
